# VDR inhibitor – vitamin D3 receptor (human) inhibition. Potency, µM, for the others: max response, negative = inhibition, usual class: inhibitors. VDR-SRC2-3 peptide fluorescence polarization, 2 h. 400,000 tested, 0.93% active. P11473; active means well fitted inhibition curve with a large enough effect; inconclusive means small, poorly fitted or top-dose-only effect, or another doubt; inactive means no such curve, though single readings can be large or run the other way; further: series mostly up to about 120 µM
# Target sequence (P11473 whole entry, looked up): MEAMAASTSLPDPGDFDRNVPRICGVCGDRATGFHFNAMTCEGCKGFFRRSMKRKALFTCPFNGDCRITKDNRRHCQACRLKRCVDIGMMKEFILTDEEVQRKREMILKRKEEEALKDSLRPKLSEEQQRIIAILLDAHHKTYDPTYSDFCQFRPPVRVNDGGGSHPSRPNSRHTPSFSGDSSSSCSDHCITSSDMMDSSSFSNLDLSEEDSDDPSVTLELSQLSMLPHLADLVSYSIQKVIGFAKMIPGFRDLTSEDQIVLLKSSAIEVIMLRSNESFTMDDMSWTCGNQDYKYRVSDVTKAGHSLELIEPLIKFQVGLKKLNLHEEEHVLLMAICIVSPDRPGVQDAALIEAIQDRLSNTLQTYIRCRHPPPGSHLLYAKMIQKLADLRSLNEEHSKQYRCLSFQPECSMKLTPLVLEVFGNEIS
#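 FP read-out; VDR + SRC2-3 coactivator peptide; 23 nl compound by pintool; 2 h RT incubation; reagents held at 4 deg C, protected from light.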
# * hit, by the source's call; ? = inconclusive; & = joins results of further samples; [ ] = another dose, or the depositor's remark. On the % scale 0 is the no-effect control and ±100 the full control effect; potency means the concentration at half of the fitted maximal effect. An excerpt; count on the stated rates, not on these rows.
SMILES,VDR inhibitor
COc1ccccc1N(C)S(=O)(=O)c1ccc(C(=O)Nc2cc(OC)c(OC)c(OC)c2)cc1,16%
CCC(C)[C@H](N)c1nnc(SCc2cccc(F)c2)o1 (stereo partly specified),-6%
O=C(NCCc1nc2ccccc2n1CCCOc1ccc2ccccc2c1)C1CCCCC1,-17%
CN(C)CCNC(=O)Cc1ccc(NC(=O)N2CCCCc3ccccc32)cc1,8%
COc1cc(NC(=O)c2cc3sccc3n2C)cc(OC)c1,1%
O=C(Nc1ccccc1OC(F)F)c1ccc(-n2cncn2)c([N+](=O)[O-])c1,4%
Cc1ccccc1NC(=O)CSc1nc(N2CCCCC2)nc(N2CCCCC2)n1,-1%
O=C(c1ccc2c(c1)N(Cc1c(F)cccc1Cl)C(=O)c1ccccc1S2)N1CCCC1,-20%
Cc1cc(=O)nc2c3ccccc3n(CC(=O)NCCC3=CCCCC3)n12,3%
CCn1c(NC(=O)c2cccs2)nc2ccccc21,4%
CCCN(CCC)CCNC(=O)C1c2ccccc2C(=O)N2CCc3ccccc3C12 (stereo unspecified),-6%
CCc1nc(-c2ccc(OC)c(OC)c2)cc2cc(OC)c(OC)cc12,-18%
COc1cc(C)ccc1OCc1cc(C(=O)N2CCCCCC2)no1,?
O=C(NCC(c1ccco1)N1CCc2ccccc21)C(=O)Nc1ccccc1F (stereo unspecified),?
Cc1nn(-c2ccc(N3CCCC3)nn2)c(C)c1CCC(=O)Nc1ccc(F)c(Cl)c1,13%
Cc1ccc(C(=O)NCC(c2ccc3c(c2)OCO3)N2CCN(C)CC2)cc1C (stereo unspecified),3%
O=C(CN1CCN(S(=O)(=O)c2ccc(Br)cc2)CC1)Nc1ccc(F)cc1,5%
CCCN1CCCc2cc(CN(CCCN3CCOCC3)C(=O)Nc3ccc(CC)cc3)ccc21,16%
COC(=O)c1cc2c(ccn2-c2ccc(F)cc2)n1Cc1ccc(OC(C)=O)cc1,-9%
Cc1ccc(C2OC34CCCCCC3C(C#N)(C(=N)O4)C2(C#N)C#N)cc1 (stereo unspecified),-3%
O=C(C1CCCN(S(=O)(=O)c2ccc(Br)s2)C1)N1CCN(c2ccccc2)CC1 (stereo unspecified),1%&-24%
CCCC(C(=O)NCc1ccco1)N(C(=O)CNS(=O)(=O)c1ccc(Cl)cc1)C1CCCC1 (stereo unspecified),10%
CCC(C)NC(=O)c1ccc(C2SCC(=O)N2Cc2ccccc2)cc1 (stereo unspecified),3%
c1cncc(-c2nc(-c3ccco3)cs2)c1,-14%

# Shown with each value named: part of the list above
SMILES: O=C(CN1CCN(S(=O)(=O)c2ccc(Br)cc2)CC1)Nc1ccc(F)cc1
- VDR inhibitor: 5%

SMILES: CCCN1CCCc2cc(CN(CCCN3CCOCC3)C(=O)Nc3ccc(CC)cc3)ccc21
- VDR inhibitor: 16%

# Quoted from the listing.
# In VDR inhibitor, Cc1nn(-c2ccc(N3CCCC3)nn2)c(C)c1CCC(=O)Nc1ccc(F)c(Cl)c1 has 13%
# In VDR inhibitor, O=C(C1CCCN(S(=O)(=O)c2ccc(Br)s2)C1)N1CCN(c2ccccc2)CC1 (stereo unspecified) has 1%&-24%
# In VDR inhibitor, O=C(CN1CCN(S(=O)(=O)c2ccc(Br)cc2)CC1)Nc1ccc(F)cc1 has 5%
# In VDR inhibitor, Cc1ccc(C2OC34CCCCCC3C(C#N)(C(=N)O4)C2(C#N)C#N)cc1 (stereo unspecified) has -3%

# Next section.
SMILES,VDR inhibitor
C/C=C(\C)C(=O)N1CC2(CC(c3cccc(NC(=O)CCCCC)c3)=NO2)C[C@@H]1C(N)=O (stereo partly specified),-12%
Cc1c(C(=O)N2CCOCC2)sc(NC(=O)C(C)C)c1C#N,-4%
N#CCSCC(=O)Nc1ccc(Cl)cc1,?
O=C(Cn1nnc(-c2ccccc2)n1)c1ccccc1,5%
COc1ccc(CN(C)C(=O)C2CSC3(C)CCC(=O)N23)cc1OC (stereo unspecified),-12%
COC(=O)c1ccc(NC(=O)c2cccc(N3C(=O)CCC3=O)c2)cc1,7%
O=C(NCc1c[nH]c2ccccc12)c1ccccc1,1%
COC(=O)c1c(C)oc2c1cc(NS(=O)(=O)c1ccc(C(=O)O)cc1)c1ccccc12,?
CC1(C)CC(=O)C(C(C2=C(O)CC(C)(C)CC2=O)c2ccc(Br)s2)C(=O)C1 (stereo unspecified),10µM*
Cc1cnc(C(=O)OCC(=O)Nc2ccc(C)c(S(=O)(=O)N3CCCCC3)c2)cn1,-12%
NC(=O)[C@@H]1CC2(CC(c3cccc(NC(=O)CC(c4ccccc4)c4ccccc4)c3)=NO2)CN1C(=O)c1ccc(Cl)cc1 (stereo partly specified),-4%
CCOC(=O)c1[nH]nc2c1C(=O)N(Cc1ccccc1)C2=O,2%
CSc1nc2ccc(NS(=O)(=O)c3ccc4c(c3)OCCO4)cc2s1,-12%
Cc1ncsc1CCSc1n[nH]c(=O)n1-c1ccccc1,-8%
C=CCNC(=S)NNc1nc2sc3c(c2c(=O)[nH]1)CC(C)(C)OC3,-9%
Cn1c(=O)c2c(nc(NCCc3ccccc3)n2Cc2ccccc2Br)n(C)c1=O,-4%
Cc1nc2ccn(Cc3cccs3)c(=O)c2cc1C(=O)NCc1ccccc1,-2%
Cn1c(=O)c2cc(S(=O)(=O)NC(Cc3ccccc3)C(=O)Nc3ccc(F)cc3)ccc2n(C)c1=O (stereo unspecified),-16%
COc1cc(NC(=O)CN2C(=O)CN(C)C2=O)c(C)cc1[N+](=O)[O-],1%
COc1cccc(CN(C)C(=O)c2cc(COc3c(F)cccc3F)on2)c1,15%
CCc1nnc(NC(=O)CCC(=O)NCCc2ccc(OC)c(OC)c2)s1,-17%
Cc1ccc(CNC(=O)CN2C(=O)CCc3cc(S(=O)(=O)N4CCCCC4)ccc32)cc1,-2%
CC1(C)CC(=O)C2=C(C1)N(Cc1cccnc1)C(=O)C2(NC(=O)c1cccnc1)C(F)(F)F (stereo unspecified),-1%
O=C(C[n+]1ccc(C(=O)N/N=C/c2ccc(Cl)cc2Cl)cc1)c1ccccc1,5%
O=C(CNC(=O)c1ccccc1)OCC(=O)c1cccs1,1%
COc1ccc(C(=O)Nc2ccc(NC(C)=O)cc2)cc1S(=O)(=O)N1CCCC1,-16%
Cc1noc(C)c1S(=O)(=O)Nc1ccc2c(c1)C(=O)N([C@H](C)CO)C[C@H](C)[C@@H](CN(C)C(=O)Nc1ccccc1)O2,8%
CCOc1ccc(NS(=O)(=O)c2ccc(C(=O)N(C)CC(=O)Nc3ccc(C)cc3)cc2)cc1,3%
Cc1oc(-c2cccs2)nc1CS(=O)CC(=O)NCCCN1CC(C)CC(C)C1 (stereo unspecified),-29%
COc1ccc(Br)cc1CNC(=O)c1ccc2nc(C(C)C)oc2c1,5%
O=C(CCc1cn(Cc2ccc(F)cc2)c2ccccc12)N1CCOCC1,2%
N#Cc1ccccc1OCC(=O)OCC(=O)Nc1ccc2c(c1)OCO2,3%
O=[N+]([O-])c1ccc(O)c(C=Nc2cccc3ccccc23)c1,23%
CCCCN1C(=O)Nc2ccccc2S1(=O)=O,2%
CCOc1ccc(S(=O)(=O)N(C)c2ccc(OCC(=O)NCc3cccnc3)cc2)cc1,-22%
CCOCCCn1c(=O)c2ccccc2n2c(=S)[nH]nc12,-11%
Cc1onc(-c2c(F)cccc2Cl)c1C(=O)N1CCCCC1,-20%
COc1ccc(Cn2c(=O)[nH]c3cc(C(=O)NC4CCCC4)ccc3c2=O)cc1,0%
Cc1cccc(Oc2coc3cc(O)ccc3c2=O)c1,-13%
CC(=O)Nc1cc2c(c([N+](=O)[O-])c1C)C(C)(C)CC2(C)C,1%
CC(=O)c1sc(NC(=O)c2c(-c3ccccc3)c(-c3ccccc3)nn(C)c2=O)nc1C,12%
O=C(NCC1CCCO1)c1ccc(Cn2c(=S)[nH]c3ccccc3c2=O)cc1 (stereo unspecified),-3%
COc1cc(Cl)c(C)cc1NC(=O)CN(C)Cc1cccc(OC)c1OC,-15%
CCc1ccc(N(CC(=O)N2CCOCC2)S(C)(=O)=O)cc1,-3%
CCCn1c(SCCC(=O)O)nc2ccccc21,-8%
COc1ccc2[nH]cc(CCNC(=O)Nc3ccccc3C)c2c1,-22%&-6%
COc1ccccc1N1CCN(C(=O)CSc2nnc(NC(=O)C(C)C)s2)CC1,6%
COc1ccc(/C=C/C(=O)Nc2sc3c(c2C(N)=O)CCCC3)cc1,-14%

# Ordered by value in VDR inhibitor (falling): some entries from above
SMILES,VDR inhibitor
O=C(NCC1CCCO1)c1ccc(Cn2c(=S)[nH]c3ccccc3c2=O)cc1 (stereo unspecified),-3%
Cc1cccc(Oc2coc3cc(O)ccc3c2=O)c1,-13%
Cc1onc(-c2c(F)cccc2Cl)c1C(=O)N1CCCCC1,-20%

# Other structures
SMILES,VDR inhibitor
CCCNC(=O)CCSc1nc(-c2ccc3c(c2)OCO3)cc(C(F)(F)F)n1,-14%
Cc1nc2ccccn2c1C(=O)Nc1ccc2c(c1)OCCO2,4%
COc1ccc(NC(=O)CCCC(=O)c2ccccc2)c(OC)c1,-5%
C[C@H]1CC[C@@H]2N(C1)C[C@H]1[C@@H]3C[C@H]4[C@@H](C/C(=N\O)[C@H]5C[C@@H](O)CC[C@@]54C)[C@@H]3CC[C@H]1[C@]2(C)O,5%
CC(=O)Nc1ccc(S(=O)(=O)N2CCN(S(=O)(=O)N3CCCCC3)CC2)cc1,14%
CCOC(=O)CCn1nc(-c2ccc(C)cc2)c2ccccc2c1=O,4%&-24%
O=C(O)c1ccccc1C(=O)N(Cc1ccccc1)Cc1ccccc1,-25%
COc1ccc(C2=NN(C3=NN=C(N)Cc4ncnn43)C(O)(C(F)(F)F)C2)cc1 (stereo unspecified),-15%
O=S(=O)(NC1CC2CCC1C2)c1ccc(Br)cc1 (stereo unspecified),-23%
CCOC(=O)c1c(C(F)(F)C(F)(F)C(F)(F)C(F)(F)F)n[nH]c1C,3%
CC(C)OCCCNC(=O)c1cccc(NC(=O)c2ccccc2)c1,-7%
Nc1ccc2nc(-c3cccc(-c4nc5ccc(N)cc5[nH]4)n3)[nH]c2c1,11%
CCCCNC(=S)Nc1ccc(F)cc1,-6%
CN(CC(=O)Nc1ccc(OC(F)(F)F)cc1)C(=O)C1CCC1,-1%
Cc1ccc(NCc2n[nH]c(=S)n2-c2ccccc2)cc1,0%
CCCCCN1C(C(=O)c2ccccc2)=C(NC(=O)c2ccc(C)cc2)c2ccccc2S1(=O)=O,-11%
O=C(NCc1ccccc1)N1CCOc2ccccc21,-4%
Cc1ccc(Oc2ccc(NS(=O)(=O)c3cccc(C(=O)O)c3)cc2)cc1,20%
NS(=O)(=O)c1ccc(NC(=O)/C=C/c2ccc(S(=O)(=O)NCc3ccco3)cc2)cc1,-13%
CC1Cc2ccccc2N1C(=O)CSc1ncccc1C(=O)O (stereo unspecified),9%
CCCC[C@@H](CN[C@H](C)CNC)NCC1CCC(C(C)(C)C)CC1 (stereo partly specified),5%
Cc1cc(N2CCN(C)CC2)nc2ccc(NC(=O)Nc3ccccc3Cl)cc12,-2%
CCc1ccc2[nH]c(C(=O)Nc3ccc(Br)c(C)n3)cc2c1,11%
COc1ccc(CNC(=S)Nc2ccccc2)cc1Cl,25%
O=C(Nc1ccccc1)NC1(C(=O)NCCCN2CCOCC2)CCCCC1,9%
COc1ccc(OCc2ccc(-c3nc(C#N)c(N4CCN(C)CC4)o3)o2)cc1,0%
O=C1CC(Nc2ccc(N3CCOCC3)cc2)C(=O)N1c1ccccc1 (stereo unspecified),-9%
CCN(CC)S(=O)(=O)c1ccc(-n2cnnn2)c(C)c1,-1%
O=C(NCC(c1ccco1)N1CCOCC1)c1ccccc1 (stereo unspecified),-20%
CCN(CC)CCNc1ccnc2cc(Cl)ccc12,6%
CCCCn1c(SCC(=O)N(C)C2CCS(=O)(=O)C2)nc2cc(S(N)(=O)=O)ccc21 (stereo unspecified),-10%
O=C(Nc1nnc(C2CC2)s1)c1cc([N+](=O)[O-])ccc1N1CCCCC1,-2%
CC(C)C(=O)Nc1ccc(C(=O)Nc2nnc(C(C)C)s2)cc1,-17%
CC(C)(C)c1ccc(Oc2ccc(N)cc2)cc1,-10%
O=C(CN1C(=O)NC2(CCCc3ccccc32)C1=O)N1CCc2ccccc2C1 (stereo unspecified),-1%
CCn1c(=S)sc2c(=O)n(-c3ccccc3)c(=S)[nH]c21,-9%
O=S(=O)(c1cccc(Cl)c1)c1nnn2c1nc(NC1CCCC1)c1sccc12,-4%
CCOc1ccccc1CNC(=O)Cn1ccc2cc(S(=O)(=O)N3CCCCCC3)ccc21,51%[activator]
CCn1c(CNc2ccc(C)cc2)nnc1SCC(=O)NCc1ccccc1,-14%
CCN(CC)c1ccc(C(=O)NN)cc1,4%
COC(=O)C(O)(CC(=O)c1ccc(OC)cc1)C(F)(F)F (stereo unspecified),15%
CCn1nc(NC(=O)CC(C)C)c2cc3cccc(C)c3nc21,12%
CC1CCN(S(=O)(=O)c2ccc(NC(=O)Cn3nnc(-c4ccccc4F)n3)cc2)CC1,27%
COc1cccc(NC(=S)N2CCN(c3ccc([N+](=O)[O-])cc3)CC2)c1,-5%
COc1ccc(CCNC(=O)CSc2ccc(NC(C)=O)cc2)cc1OC,-4%
COc1cccc(Cn2c(SCc3ccc(C(=O)N4CCC(C)CC4)cc3)nc3ccncc32)c1,13%

# Assay outcomes as filed in PubChem.
